Assay outcomes (PubChem)
GALR2 ag: GALR2 receptor agonists, primary screen, cell-based; Galanin receptor type 2 (Homo sapiens), O43603; GALR2-expressing cells, agonist activation read-out; activation, %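 (tested at 5 µM)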; hit rate 0.48% among 140,000;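 active = above mean plus 3 SD of all compounds, about 5% in these data, not always enough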;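 also: 0% = vehicle buffer wells and 100% = reference agonist at full effect; tested in CHO reporter cells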
Target sequence (O43603 whole entry, looked up): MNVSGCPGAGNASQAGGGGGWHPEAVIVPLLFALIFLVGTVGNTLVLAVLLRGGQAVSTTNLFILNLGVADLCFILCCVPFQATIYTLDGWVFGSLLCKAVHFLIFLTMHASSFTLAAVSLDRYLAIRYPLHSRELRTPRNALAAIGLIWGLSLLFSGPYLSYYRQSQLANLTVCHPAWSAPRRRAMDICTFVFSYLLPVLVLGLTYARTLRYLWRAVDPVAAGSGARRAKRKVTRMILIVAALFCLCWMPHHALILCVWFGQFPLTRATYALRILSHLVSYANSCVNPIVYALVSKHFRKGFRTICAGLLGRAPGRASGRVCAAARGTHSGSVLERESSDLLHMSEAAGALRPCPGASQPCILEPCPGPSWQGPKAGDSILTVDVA
Insulin prom inh: inhibitors of insulin promoter-driven GFP, primary screen, imaging, TRM-6 cells (human fetal islet line), eGFP reporter, cell count | reporter expression induced with tamoxifen | inhibition, % at 2 µM | hit rate 0.9% among 130,000 | AID 1273, 2008;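 active = inhibition above the mean plus 3 SD, with well images judged a real hit on visual review, cut at about 60% in these data, passing the limit was not always enough; inconclusive = inhibition over the cutoff but images rejected on review; inactive = inhibition not above the cutoff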
PKD1 inh: inhibitors of human PKD1 kinase, biochemical, fluorescence polarization | hit rate 0.056% among 200,000 | Serine/threonine-protein kinase D1 (Homo sapiens), Q15139 | inhibition, %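 (about 10 µM by stock and volumes)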 | AID 797, 2007 | PKD1 kinase fluorescence polarization assay;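 active = inhibition of 50% or more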;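 also: controls were vehicle for no effect and a reference inhibitor for full effect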
RGS16-Gao HTS: modulators of RGS16 binding to Galphao, primary screen, biochemical, human proteins, multiplexed bead flow cytometry | bead-based flow cytometry RGS16-Galphao binding, fluorescence; actives lie on both sides | hit rate 0.38% among 220,000 | binding response (% of control), % at 10 µM;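 active = below 25% or above 175%, edge rows of some plates excepted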;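 also: Galphao activated by GDP with aluminum fluoride before binding; 100% = wells without compound and 0% = beads without RGS; some results beyond the cut were filed as inactive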
Target sequence (O15492 whole entry, looked up): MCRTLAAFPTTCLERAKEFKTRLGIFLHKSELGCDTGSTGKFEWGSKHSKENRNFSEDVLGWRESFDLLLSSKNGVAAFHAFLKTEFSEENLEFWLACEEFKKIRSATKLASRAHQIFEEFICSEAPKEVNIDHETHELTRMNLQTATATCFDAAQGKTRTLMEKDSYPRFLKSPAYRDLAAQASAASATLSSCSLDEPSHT
Target sequence (P09471 whole entry, looked up): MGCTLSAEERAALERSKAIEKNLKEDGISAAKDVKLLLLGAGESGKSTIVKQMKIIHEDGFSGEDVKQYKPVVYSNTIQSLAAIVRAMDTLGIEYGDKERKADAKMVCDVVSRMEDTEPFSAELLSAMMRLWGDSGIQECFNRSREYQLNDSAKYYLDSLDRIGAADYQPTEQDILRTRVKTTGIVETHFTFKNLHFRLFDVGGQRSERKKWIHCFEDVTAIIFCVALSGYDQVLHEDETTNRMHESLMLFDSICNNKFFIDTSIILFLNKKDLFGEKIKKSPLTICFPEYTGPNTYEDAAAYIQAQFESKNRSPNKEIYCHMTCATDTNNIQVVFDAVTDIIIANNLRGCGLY
HSV augment: enhancers of HSV replication in host cells, fold increase, host cell viability. hit rate 0.005% among 220,000. maximum fold increase. HSV replication augmentation in cells;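 active = peak rise of 1.5-fold or more in the series; inconclusive = self-fluorescent or not available for retest; tested in PC3 cells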;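 also: first round at 10 µM; read as green reporter fluorescence; hits show the peak of a series up to 25 µM; 1 = signal of infected wells without compound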
Insulin prom inh cell count: also measured in Insulin prom inh; calls as there; normalized cell count, %; measured here: cell count, toxicity; reference of the scale not given here;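 cells exposed to compound for 48 h; stained nuclei by imaging scaled within each plate; lower means fewer cells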
HSV augment primary fold: recorded beside HSV augment, whose call it bears; fold increase; compound at 10 µM; measured here: primary screen fold increase 10 uM; tested in PC3 cells;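 GFP signal in the first replicate; 1 = infected wells without compound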
Active calls of the source: *; i = inactive; ? = inconclusive; nt = not tested or not shown.

SMILES | GALR2 ag | Insulin prom inh | Insulin prom inh cell count | PKD1 inh | RGS16-Gao HTS | HSV augment | HSV augment primary fold
CCOC(=O)C1=C(C)NC(C)=C(C(=O)OCC)C1C(=O)OCC(=O)N(C)C1CCS(=O)(=O)C1 (stereo not given) | nt | -100 | 134 | 2 | 109 | i | 0.96
CCOC(=O)c1c(C)nc2c(c1-c1ccc(OC)c(OC)c1)C(=O)c1ccccc1-2 | -0.7 | 0 | 223 | 5 | 105 | i | 0.95
CCOC(=O)n1c(=O)n(Cc2cccc(F)c2)c2ccccc21 | nt | -17 | 86 | -3 | 104 | i | 1
C/C(=N\OCC(=O)Nc1ccc2c(c1)OCCO2)c1ccc2c(c1)OCCO2 | -1.7 | nt | nt | -5 | 110 | i | 1.1
O=C(N/N=C\c1ccc(O)c([N+](=O)[O-])c1)c1ccccc1-n1cccc1 | -0.7 | 21 | 102 | -3 | 79 | i | 1.1
CC(=O)Nc1ccc(S(=O)(=O)NCCc2ccc(F)cc2)cc1 | -1.3 | 9 | 102 | -2 | 78 | i | 0.77
COc1ccccc1Nc1nc(N)nc(CN2CCc3ccccc3C2)n1 | -3.7 | -27 | 121 | -6 | 92 | i | 1
COc1ccc(C(=O)OC2CCN(c3ncc(C(F)(F)F)cc3Cl)CC2)cc1 | -0.6 | nt | nt | 1 | 98 | i | 1.1
CC1Cc2ccccc2N1C(=O)CSc1nc(-c2ccco2)cc(C(F)(F)F)n1 (stereo not given) | -0.2 | nt | nt | 0 | 105 | i | 0.88
C=CCN1C(=O)C(CC(=O)Nc2ccccc2)SC1=Nc1ccc(S(N)(=O)=O)cc1 (stereo not given) | -1.5 | -25 | 33 | 3 | 92 | i | 0.81
CCCCOc1ccccc1N | -2.3 | -8 | 102 | -10 | 99 | i | 1.1
COC(=O)c1oc2ccccc2c1N | -4.2 | -8 | 134 | -6 | 103 | i | 0.93
O=C(CCCNS(=O)(=O)c1cccc2nsnc12)NCCc1ccccc1 | -4.1 | 29 | 126 | 7 | 90 | i | 1.1
CCOC(=O)c1ccc(NC(=O)c2nc[nH]c2C(=O)N[C@@H](CC(C)C)C(=O)OCc2ccccc2)cc1 | nt | nt | nt | nt | 104 | i | 0.85
Cc1cc(C)nc(N/N=C/c2cc3c(cc2[N+](=O)[O-])OCO3)n1 | nt | 8 | 113 | -1 | 106 | i | 0.9
C=CCn1c(=O)/c(=C/c2ccc(O)cc2)s/c1=C(/C#N)c1nnc2n1CCCCC2 | -0.4 | 63 | 164 | 1 | 105 | ? | nt
CCOC(=O)c1sc(N(Cc2ccccc2)C(=O)CSc2nnc(C3CC3)n2N)nc1C | -0.4 | nt | nt | 2 | 110 | i | 0.78
CC(C)C(NC(=O)/C=C/c1ccc(F)cc1)C(C)C | -0.8 | 20 | 76 | -16 | 99 | i | 0.96
CC1CC(=O)N(C)c2cc([N+](=O)[O-])ccc2N1 (stereo not given) | nt | -42 | 100 | -4 | 108 | i | 0.92
CC(NC(=O)COc1ccccc1)C(=O)NC1=NCCS1 (stereo not given) | 0.0 | 21 | 78 | -12 | 102 | i | 1.1
CSc1ccc(CNc2ccc(Cl)cc2)cc1 | 0.6 | nt | nt | -1 | 95 | i | 0.77
Cc1ccc(-c2csc(NC(=O)C3CC=CCC3C(=O)O)c2C(=O)OC(C)C)cc1 (stereo not given) | -1.6 | -3 | 96 | -1 | 102 | nt | nt
CC(=O)Nc1ccc(NC(=O)Cn2c(=O)n(-c3ccc(F)cc3)c(=O)c3oc4ccccc4c32)cc1 | nt | nt | nt | -4 | 97 | i | 1
CCOC(=O)c1sc2nc(N3CCOCC3)c3c(c2c1N)CCCC3 | -0.8 | -23 | 70 | 0 | 102 | i | 0.77
Cn1cccc1/C=N/n1c(-c2ccccc2)n[nH]c1=S | -1.2 | -21 | 106 | -7 | 98 | i | 1
COc1ccccc1N1CCN(S(=O)(=O)c2cn(C)c(=O)n(C)c2=O)CC1 | -3.0 | nt | nt | -1 | 106 | i | 1.1
COc1ccc2cc3cc(C(=O)NCCN4CCc5ccccc5C4)sc3nc2c1 | -0.1 | 7 | 122 | -7 | 100 | i | 0.8
CN(C)S(=O)(=O)c1cccc(NC(=S)N/N=C/c2ccco2)c1 | nt | nt | nt | nt | 108 | i | 1.1
CCN(CC)S(=O)(=O)c1ccc2nc(SC)sc2c1 | -0.3 | 79* | 135* | 2 | 104 | i | 0.9
COC(=O)CSc1nc2cc(C)ccc2cc1C#N | -1.0 | nt | nt | -36 | 120 | i | 1.2

Single records, as listed above:
CCN(CC)S(=O)(=O)c1ccc2nc(SC)sc2c1 in the list: GALR2 ag = -0.3; Insulin prom inh = 79*; Insulin prom inh cell count = 135*; PKD1 inh = 2; RGS16-Gao HTS = 104; HSV augment = i; HSV augment primary fold = 0.9
CSc1ccc(CNc2ccc(Cl)cc2)cc1 in the list: GALR2 ag = 0.6; Insulin prom inh = nt; Insulin prom inh cell count = nt; PKD1 inh = -1; RGS16-Gao HTS = 95; HSV augment = i; HSV augment primary fold = 0.77

Later entries
SMILES | GALR2 ag | Insulin prom inh | Insulin prom inh cell count | PKD1 inh | RGS16-Gao HTS | HSV augment | HSV augment primary fold
Cc1oc2c(c1C(=O)Nc1ccc(C(=O)O)cc1)CCCC2 | -2.9 | 58 | 128 | -5 | 111 | i | 0.91
CCc1nnc(NC(=O)C2c3ccccc3Oc3ccccc32)s1 | -2.4 | -21 | 160 | -5 | 46 | i | 0.91
O=S(=O)(Nc1nc2ccccc2nc1N1CCc2ccccc2C1)c1ccc(Cl)cc1 | -1.9 | 26 | 80 | -6 | 98 | i | 0.98
N/C(=N\OC(=O)CCCN1C(=O)c2ccccc2C1=O)c1ccc(Br)cc1 | -2.2 | 20 | 105 | -10 | nt | i | 1
CCCCN1CN(S(=O)(=O)c2cccs2)c2nc3ccccc3nc21 | 0.8 | 35 | 100 | -3 | 101 | i | 0.97
COC(=O)c1c(C)oc2ccc(N(C(=O)Oc3ccccc3)S(=O)(=O)c3ccc(Cl)c([N+](=O)[O-])c3)cc12 | -1.2 | 26 | 121 | 0 | 94 | i | 0.88
CN1CCN(Cc2cccc(Oc3ccc(Cl)cc3)c2)CC1 | -2.2 | 13 | 128 | 0 | 125 | i | 0.79
Cc1nn(C)c(C)c1CN(C)C(=O)c1nn2c(c1Br)NC(c1cccs1)CC2C(F)(F)F (stereo not given) | 0.2 | -29 | 76 | -4 | 108 | i | 1.1
CCn1c(COc2ccccc2)nnc1SCC(=O)Nc1ccc2c(c1)OCCO2 | 0.1 | -27 | 111 | -11 | 92 | i | 1
Cc1cccc(N=Cc2cc3c(cc2[N+](=O)[O-])OCO3)c1 | -1.5 | 21 | 114 | -11 | 100 | i | 0.88

In another format: results already given
Value order – GALR2 ag	Insulin prom inh	Insulin prom inh cell count	PKD1 inh	RGS16-Gao HTS	HSV augment	HSV augment primary fold
CC1CC(=O)N(C)c2cc([N+](=O)[O-])ccc2N1 (stereo not given)
→ nt	-42	100	-4	108	i	0.92
CC(NC(=O)COc1ccccc1)C(=O)NC1=NCCS1 (stereo not given)
→ 0.0	21	78	-12	102	i	1.1
CSc1ccc(CNc2ccc(Cl)cc2)cc1
→ 0.6	nt	nt	-1	95	i	0.77

(more compounds)
SMILES | GALR2 ag | Insulin prom inh | Insulin prom inh cell count | PKD1 inh | RGS16-Gao HTS | HSV augment | HSV augment primary fold
COc1ccc(-c2cc(C(=O)Nc3cnn(Cc4ccccc4C)c3)no2)cc1OC | -1.9 | 26 | 101 | -9 | 107 | i | 0.92
CCCCCC1CC(=O)N(Cc2ccc(Cl)cc2)C(=O)N1 (stereo not given) | -0.6 | nt | nt | -1 | 105 | i | 1
CCCCC(=Nc1ccc(N)cc1)C1=C(O)C(C(=O)OC)C(C)(C)CC1=O (stereo not given) | -2.9 | -30 | 68 | -5 | 97 | i | 1.1
Cc1[nH]n(-c2cccc(Cl)c2)c(=O)c1-c1ccc(Cl)cc1 | -0.7 | 20 | 78 | 2 | 103 | i | 0.96
COc1ccccc1NC(=O)N1CCC(c2nc3cc(C)c(C)cc3[nH]2)CC1 | -2.0 | -13 | 73 | -5 | 111 | i | 0.51
CC(=O)Nc1ccc(-c2csc(NC(=O)C3CC(=O)N(c4ccc5c(c4)OCCO5)C3)n2)cc1 (stereo not given) | nt | nt | nt | nt | 92 | i | 0.92
CC(C)(C)c1cc(C(C)(C)C)cc(S(=O)(=O)CCc2ccccn2)c1 | -0.3 | -467 | 26 | -8 | 98 | i | 0.94
COc1ccc(N2C(=O)CC(SCCc3nc4ccccc4[nH]3)C2=O)cc1 (stereo not given) | -1.9 | nt | nt | 4 | 117 | i | 0.93
COc1ccc(CCN(C(=O)C(F)(F)F)C(C(=O)NC2CCCC2)c2cccs2)cc1OC (stereo not given) | -3.8 | 8 | 140 | -11 | 93 | i | 0.86
CCN1C(=O)/C(=C/c2ccc(C)s2)SC1=Nc1ccc(OC)cc1 | -1.7 | nt | nt | 11 | 190 | i | 0.97
Cc1ccc(C(NC(=O)c2ccccc2)C(Cl)(Cl)Cl)cc1 (stereo not given) | 0.1 | 0 | 139 | -4 | 106 | i | 1.2
CS(=O)(=O)N1CCN(c2ccc(NC(=O)Cc3ccccc3)cc2)CC1 | -1.6 | 16 | 124 | -5 | 98 | i | 1.2
O=C(N/N=C/c1c[nH]c2ccccc12)c1ccn(Cc2ccc(Cl)cc2)n1 | -1.4 | -7 | 127 | 7 | 102 | i | 1.1
N#C/C(=C1/CCCCCN1)c1nc2ccccc2s1 | -1.0 | nt | nt | 1 | 96 | i | 0.93
Cc1ccc(NC(=O)Cn2c(=O)cnc3ccccc32)cc1S(=O)(=O)N(C)C | 0.3 | -24 | 115 | -3 | 102 | i | 1.1
CCCCOC(=O)Nc1cccc(Cl)c1C | -1.3 | 38 | 131 | -18 | 104 | i | 1.1
COCC(=O)n1nc(-c2ccccc2)nc1NCc1ccc(N(C)C)cc1 | nt | nt | nt | -4 | 96 | i | 0.95
CCONc1ncnc2nonc12 | -0.3 | -17 | 175 | -4 | 103 | i | 0.92
NC(=O)CC1C(=O)N(c2ccc(F)cc2)C(=O)N1NC(=O)CCc1ccccc1 (stereo not given) | nt | nt | nt | 3 | 101 | i | 0.92
CCOC(=O)c1[nH]ncc1CN1CCN(Cc2ccc(C)cc2)C(CCO)C1 (stereo not given) | nt | nt | nt | 0 | 94 | i | 1.2
C=C(C)CNC(=S)N/N=C/c1c(F)cccc1F | nt | nt | nt | 0 | 98 | i | 0.85
Cn1c(SCC(=O)C(C)(C)C)nnc1-c1cccnc1 | -1.8 | 33 | 81 | -15 | 142 | i | 0.8
Cc1ccc(S(=O)(=O)N(C)C)cc1NC(=O)C1CCCC1 | 1.2 | nt | nt | 2 | 103 | i | 1.2
Cn1c(=O)[nH]c(=O)c2c1nc(N(CCO)Cc1ccccc1)n2CCCc1ccccc1 | -0.7 | nt | nt | -3 | 103 | nt | nt
O=C(/C=C/c1ccccc1)N1CCN(C(=O)c2ccco2)CC1 | -3.6 | 16 | 79 | -2 | 107 | i | 0.78
COc1cc(CCN2C(=O)c3cccc4cccc(c34)C2=O)c(S(=O)(=O)NCCCO)cc1OC | -1.0 | -15 | 69 | 7 | 104 | i | 1
O=C(NNC(=O)[C@@H]1CCCC[C@@H]1C(=O)O)c1cccs1 | -2.7 | 52 | 63 | -4 | 97 | i | 0.89
O=C(Nc1ccc2c(c1)OCCO2)c1cccs1 | -0.5 | 33 | 119 | -21 | 104 | i | 0.95
Cn1c(=O)c2c(nc(Br)n2CCSc2nc3ccccc3o2)n(C)c1=O | -1.4 | -23 | 104 | 9 | 106 | nt | nt
COc1ccc(-c2csc3[nH]c(=S)n(-c4ccccc4)c(=O)c23)cc1OC | -0.8 | -42 | 149 | -5 | 108 | i | 0.97
CCOC(=O)CSc1nnc(CNC(=O)c2cccc(C)c2)n1C | nt | -21 | 65 | -6 | 105 | i | 0.89
Cc1sc(NC(=O)c2cccnc2)nc1-c1ccccc1 | nt | 0 | 121 | 2 | 103 | i | 1.1
Cc1cc(-c2nnnn2-c2ccc(C(F)(F)F)cc2)no1 | nt | nt | nt | nt | 95 | i | 1.1
CC(C)OCCCNC(=O)CN1C(=O)CC(C)(C)S(=O)(=O)c2ccccc21 | -2.6 | nt | nt | -14 | 104 | i | 0.92
N#C/C(=C\c1ccccc1)C(=O)NCCN1CCOCC1 | nt | nt | nt | 7 | 96 | i | 0.95
CCCCCC(=O)Nc1cc(N(C)C)nc2ccccc12 | -1.1 | nt | nt | -1 | 88 | i | 0.89
COc1ccccc1NC(=O)N1CCCC1C(=O)NC1CCCCC1 (stereo not given) | -2.2 | 29 | 144 | -6 | 83 | i | 0.89
